Source: PubChem
VACV Venus inh: inhibitors of vaccinia virus (Venus reporter); Vaccinia virus Venus reporter expression, fluorescence; Potency, µM (titrated, usually from 36.5 µM), without a hit: at the top dose activity change, negative = inhibition, hits mostly inhibitors; 0.46% of 330,000 active; AID 720580; active means well fitted inhibition curve with a large enough effect; inconclusive means small, poorly fitted or top-dose-only effect; inactive means no such curve, though single readings can be large or run the other way; tested in A549 cells; further: nearly all actives have a fitted effect of over 30% in size; inactives centre near -10
Vaccinia mCherry: inhibitors of vaccinia virus infection (mCherry reporter signal) | Vaccinia virus mCherry reporter infection, fluorescence; about a quarter of the inactives have no number | Potency, µM (top dose mostly 36.5 µM), for inactives: at the top dose activity change, negative = inhibition, hits mostly inhibitors | 0.63% of 310,000 active | AID 720579; active = well fitted inhibition curve with a large enough effect; inconclusive = small, poorly fitted or top-dose-only effect; inactive = no such curve, though single readings can be large or run the other way; tested in A549 cells; further: nearly all actives have a fitted effect of over 35% in size; inactives centre near -10
Numbers without * were called inactive; i = inactive; u = inconclusive; x = no result given; & = joins results of further samples; [ ] = dose if it differs, or a comment. On the % scale 0 is the no-effect control and ±100 the full control effect; potency means the concentration at half of the fitted maximal effect.

SMILES | VACV Venus inh | Vaccinia mCherry
Cc1cccc(-c2cc(C(=O)Nc3cccnc3)c3ccccc3n2)c1 | -12.9% | -9.4%
O=C(Oc1cc(=O)oc2c1c(=O)n1c3c(cccc23)CC1)c1ccccc1 | 5.7% | i
N=c1sccn1CC(=O)NCc1ccc(Cl)cc1Cl | -3.5% | i
CC(C)C(NC(=O)c1ccccc1)C(=O)N1CCCCCC1 (stereo not given) | 5.4% | -7.3%
C=C1C=C(C)n2ncc(C(=O)Nc3cccc4cnccc34)c2N1 | -9.5% | -2.7%
CCOC(=O)c1sc2nc(C)nc(Nc3ccc(OC)cc3)c2c1C | -10.6% | -14.0%
O=C(O)c1cccc(-n2cc(-c3cccc(C(F)(F)F)c3)cn2)c1 | -10.8% | i
COc1cc(OC)cc(C2=Cc3ccccc3C(CC(=O)c3ccco3)N2c2ccc(-c3cnc(OC)nc3)cc2)c1 (stereo not given) | 5.6% | 18.9%
Cc1cccc(NC(=O)c2ccc3c(c2)OCCO3)c1 | -6.9% | -9.1%
Cc1nc2scc(-c3ccc(C(C)C)cc3)c2c(=O)n1N | -11.6% | -12.3%
CCOC(=O)C1=CCN(S(=O)(=O)c2ccccc2)C1c1ccc(C)cc1 (stereo not given) | -12.0% | i
O=C(NC(=S)Nc1ccccc1N1CCCCC1)c1cccs1 | -12.0% | i
COc1ccc(C(C)=O)cc1Cn1nnc(-c2ccccc2Br)n1 | -16.6% | -3.0%
Cc1cc(C)c(NC(=O)Cn2c(=O)n(Cc3ccco3)c(=O)c3ccccc32)c(C)c1 | -17.9% | x
CCCCn1c(N)c(N(Cc2ccccc2OC)C(=O)CN2C(=O)NC3(CCCC3)C2=O)c(=O)[nH]c1=O | -3.4% | -12.7%
Cc1c(C)c2c(OCC(=O)N3CCC(C(N)=O)CC3)cc3c(c2oc1=O)CCC(C)(C)O3 | -9.9% | -11.2%
C/C(=N\NC(=O)c1ccccc1O)c1cccs1 | -3.0% | -6.1%
CCN1CCN(c2ccc(S(=O)(=O)N3CCCCC3)cc2NC(=O)COc2ccccc2)CC1 | -19.6% | -9.1%
CCOC(=O)c1c(C)[nH]c(C)c1C(=O)COC(=O)CNC(=O)C1CCCCC1 | -5.3% | -9.9%
Cc1ccccc1OCC(=O)NCC(=O)OCc1ccc2ccccc2c1 | -5.4% | 37.9%[activator]
CC(C)(C)[C@H]1COC(=O)[C@H](NC(=O)OCC2c3ccccc3-c3ccccc32)C/C=C\C[C@@H](CC(=O)N[C@@H](CO)Cc2ccccc2)C(=O)N1 | -20.6% | u
COc1ccccc1Nc1nccc(N(C)C)c1C#N | 5.5% | -4.7%
CS(=O)(=O)c1cccc(C(=O)Nc2ccc(S(=O)(=O)N3CCCCC3)cc2)c1 | -29.6% | -9.4%
COC(=O)c1sc(-c2ccccc2)cc1NC(=O)Nc1ccccc1Cl | -10.8% | -7.2%
CC(=O)c1ccc(NC(=O)c2cc(Cl)nc3ccccc23)cc1 | 7.9% | i

Next section (5 carried over from the part before).
SMILES | VACV Venus inh | Vaccinia mCherry
CC(C)(C)[C@H]1COC(=O)[C@H](NC(=O)OCC2c3ccccc3-c3ccccc32)C/C=C\C[C@@H](CC(=O)N[C@@H](CO)Cc2ccccc2)C(=O)N1 | -20.6% | u
COc1ccccc1Nc1nccc(N(C)C)c1C#N | 5.5% | -4.7%
CS(=O)(=O)c1cccc(C(=O)Nc2ccc(S(=O)(=O)N3CCCCC3)cc2)c1 | -29.6% | -9.4%
COC(=O)c1sc(-c2ccccc2)cc1NC(=O)Nc1ccccc1Cl | -10.8% | -7.2%
CC(=O)c1ccc(NC(=O)c2cc(Cl)nc3ccccc23)cc1 | 7.9% | i
COc1ccc(NC(=O)C2(C)Cc3c(-c4ccc5c(c4)OCO5)ccnc3O2)cn1 (stereo not given) | u | -8.7%
CCOc1ccccc1N(CC(=O)NCCSc1ccccc1)S(=O)(=O)c1ccccc1 | -20.1% | -20.6%
Fc1cc(F)cc(NC(=S)N2CCC(c3ccccc3)C2)c1 (stereo not given) | 0.0%[7.34 µM] | 0.4%[7.34 µM]
Oc1[nH]c2ccccc2c1C1=NCCCC1 | -25.2% | x
CCOc1ccc(CCNC(=O)c2ccc(N3CCCC3=O)cc2)cc1OCC | -14.8% | -16.3%
Cc1c(NC(=O)COC(=O)c2cc(-c3ccc(-c4ccccc4)cc3)nc3ccccc23)c(=O)n(-c2ccccc2)n1C | 17.6% | u
CCOc1ccccc1CNC(=O)CN1C(=O)CCn2nc(-c3cn(C)c4ccccc34)cc21 | 2.3% | -14.8%
C[C@H](CO)N1C[C@H](C)[C@@H](CN(C)S(=O)(=O)c2ccc(F)cc2)Oc2ccc(NC(=O)Nc3ccccc3)cc2C1=O | -19.3% | -6.8%
COc1cc(C(=O)N2c3ccccc3CC2C)cc(OC)c1OC (stereo not given) | u | x
O=C(Cn1ccc([N+](=O)[O-])n1)Nc1nc2ccccc2s1 | -5.5% | i
COc1ccc(C(O)Cn2cc([N+](=O)[O-])nc2C)cc1 (stereo not given) | -6.8%[7.34 µM] | i[7.34 µM]
COc1ccccc1NC(=S)NC1CCCCC1 | -12.0% | -14.7%
O=C(COc1ccccc1Br)c1ccc2c(c1)OCO2 | -12.6% | -11.8%
CN(C(=O)CSc1cn(CC(=O)N2CCOCC2)c2ccccc12)c1ccccc1 | -4.1% | -4.2%
CC[C@]12c3[nH]c4ccc(Cl)cc4c3CCN1C(=O)[C@@H](CC(=O)NCCCOC)C[C@@H]2C(=O)N1CCN(C(=O)C2CC2)CC1 | -24.7% | i
CCN(CC)CCCNc1ncnc2ccccc12 | 3.7% | -9.3%
COc1ccc(C(=O)Cc2ccc(OC)c(OC)c2)c(OC)c1 | -17.9% | -1.7%
COC(=O)c1cc(Cl)cc2c(C)c(C3(O)CCCCC3)[nH]c12 | -19.5% | -27.8%
COC(=O)c1cnn2c(C(F)(F)F)cc(-c3ccccc3)nc12 | -6.2% | i
Cc1cccc(NC(=O)OC2CN3CCC2CC3)c1 (stereo not given) | -0.4% | -6.5%
COc1ccc(N2CCN(S(=O)(=O)c3ccc(-c4cc(C)no4)s3)CC2)cc1 | -15.2% | -25.3%
O=c1[nH]cnc2c1ncn2[C@@H]1O[C@H](CO)[C@@H](O)[C@H]1O | -2.3%&-8.7% | -14.1%&-5.0%
O=C(O)C1CCN(c2ccc(S(=O)(=O)N3CCOCC3)cc2[N+](=O)[O-])CC1 | -4.8% | -2.3%
CC1CCN(C(=O)CN(c2ccc3c(c2)OCCO3)S(=O)(=O)c2ccccc2)CC1 | -7.8% | -7.0%
CCOC(=O)c1c(C)[nH]c(C(=O)N/N=C\c2ccccc2Cl)c1C | u | u

Additional results follow.
SMILES | VACV Venus inh | Vaccinia mCherry
COc1cc(C(=O)NCC(=O)OC(C)C(=O)Nc2ncc(Cl)cc2Cl)cc(OC)c1OC (stereo not given) | -5.8% | i
COc1ccccc1NS(=O)(=O)c1ccc(C(=O)N2CCCCCC2)cc1 | -18.5% | -20.7%
COc1ccc(OCC(=O)N/N=C/C(C)=C/c2ccco2)c(Br)c1 | u | u
CSc1ncccc1C(=O)NCCc1ccccc1F | -14.0% | i
COC(=O)c1cc(CNC(=O)CCCSc2ccccc2)ccc1OC | 12.8% | -2.5%
COc1ccc(NC(=O)COC(=O)C23CC4CC(CC(NC(C)=O)(C4)C2)C3)cc1S(=O)(=O)N1CCOCC1 | -16.9% | -27.2%
Cc1ccc(-c2cn3cccc(C)c3n2)cc1NS(=O)(=O)c1ccccc1 | -11.5% | -18.7%
COC(=O)c1cc(=O)n2c(sc3ccccc32)c1C#N | -3.3%[7.34 µM] | i[7.34 µM]
CCOc1ccc(NC(=S)Nc2ccc3nsnc3c2)cc1 | -10.9% | -14.3%
Cc1cc(N2CCN(C)CC2)nc2ccc(NC(=O)c3ccc(C(C)(C)C)cc3)cc12 | 14.1µM* | u
Cc1ccc(S(=O)(=O)N2CCC(=O)N(CCOCc3ccccc3)CC2)cc1 | -15.3% | -11.4%
CCCCCCc1cc2cc(C(=O)NC)c(=N)oc2cc1O | 3.6% | -9.6%
CO/N=C/C(C#N)=C/c1ccc(OC)c(OC)c1 | -9.7% | i
CN1C(=O)NC(c2ccccc2Cl)C2=C1CC(C)(C)CC2=O (stereo not given) | -7.6% | -6.1%
COC(=O)c1[nH]c2ccccc2c1NC(=O)CN1CCN(Cc2ccc3c(c2)OCO3)CC1 | -26.4% | -19.4%[1.46 µM]
OC(CSc1ccccc1)CN1CCN(c2ccc(Cl)cc2)CC1 (stereo not given) | -7.0% | -12.3%
N#CC(c1ccc(N)cc1)C(CC(=O)c1ccccc1)c1ccccc1 (stereo not given) | -8.2% | -7.4%
Cc1cccc(CSc2cn(CC(=O)N3CCCCC3)c3ccccc23)c1 | -3.5% | -9.7%
CC(C)(C)OC(=O)N(Cc1ccccc1)Cc1cccc(OCc2cccc(NC(=O)c3ccccc3)c2)c1 | 0.0% | -1.4%
O=C(Nc1ccc2oc(-c3cccnc3)nc2c1)c1ccc(-c2ccc(OC(F)(F)F)cc2)o1 | 8.3% | -1.4%
CCOc1ccc(C2C(C#N)=C(N)Oc3c2c(=O)oc2ccccc32)cc1 (stereo not given) | 0.2% | -11.8%
Cc1ccc(S(=O)(=O)N(C)Cc2ccc(-c3nnc4n3CCC4)cc2)cc1 | -24.5% | -0.9%
Cc1ccc(C)c(C(=O)N2CCC(n3nccc3NC(=O)C3CC3)CC2)c1 | -10.5% | i
CCCCN(C)C(=O)Cn1nc(Cc2ccncc2)c2ccccc2c1=O | -5.8% | -11.4%
O=[N+]([O-])c1ccc(N2CCOCC2)cc1O | -25.4% | -19.3%

As a short view, part of the list above.
SMILES | VACV Venus inh | Vaccinia mCherry
COc1ccc(OCC(=O)N/N=C/C(C)=C/c2ccco2)c(Br)c1 | u | u
CSc1ncccc1C(=O)NCCc1ccccc1F | -14.0% | i
COC(=O)c1cc(CNC(=O)CCCSc2ccccc2)ccc1OC | 12.8% | -2.5%
COc1ccc(NC(=O)COC(=O)C23CC4CC(CC(NC(C)=O)(C4)C2)C3)cc1S(=O)(=O)N1CCOCC1 | -16.9% | -27.2%
Cc1ccc(-c2cn3cccc(C)c3n2)cc1NS(=O)(=O)c1ccccc1 | -11.5% | -18.7%
COC(=O)c1cc(=O)n2c(sc3ccccc32)c1C#N | -3.3%[7.34 µM] | i[7.34 µM]
CCOc1ccc(NC(=S)Nc2ccc3nsnc3c2)cc1 | -10.9% | -14.3%

Later entries:
SMILES | VACV Venus inh | Vaccinia mCherry
Cc1ccn2cc(CCNS(=O)(=O)c3ccc4c(c3)OCCO4)nc2c1 | -1.7% | 16.3%
Cc1ccc(Oc2nnc(-c3ccc(C)cc3)c3ccccc23)cc1 | -12.4% | -15.0%
COc1ccc2c(c1O)-c1cccc3c1[C@@H](C2)N(C)CC3 | -9.8% | -17.5%
Cc1cc(C(=O)OC(C)C(=O)Nc2cccc(Cl)c2)on1 (stereo not given) | 6.1% | i
O=C(Oc1ccc(Br)cc1C(=O)/C=C/c1ccccc1F)c1ccco1 | -3.2% | u
CCCCn1c(N)c(N(CCOC)C(=O)c2cc(S(=O)(=O)N3CCCCC3)ccc2Cl)c(=O)[nH]c1=O | -10.0% | i
C[C@@H]1CN([C@@H](C)CO)C(=O)CCCn2nncc2CO[C@@H]1CN(C)S(=O)(=O)c1ccc(F)cc1 | -3.6% | i
CC(C)(C)NCC(O)COc1ccccc1C1CCCC1 (stereo not given) | u | -17.7%
CCCCc1ccc(NC2=NCC(=O)N2CCc2ccccc2)cc1 | -13.0% | -7.4%
NC(=O)C1CCN(CC(O)COCc2ccccc2Cl)CC1 (stereo not given) | 1.9% | -13.4%
CC(=O)Nc1c(Br)cc2c(c1Br)Cc1cc([N+](=O)[O-])ccc1-2 | -8.3% | u
CC(CC(=O)Nc1ncc([N+](=O)[O-])s1)c1ccccc1 (stereo not given) | u | u
Cc1ccc(NC(=O)CSCC(=O)N(C)CC(=O)Nc2cccc(F)c2)cc1 | -14.6% | i
Cc1cc(=O)n(CC(=O)N2CCCCC2)c2c1c(C)nn2C | -3.2% | -0.9%
O=C(CN1CCc2cc3c(cc2C1)OCCCO3)Nc1cccc(Br)c1 | 0.1% | -18.7%
CCOc1cc(CNc2ccc(S(N)(=O)=O)cc2)ccc1OCC(=O)NC(C)(C)C | -16.9% | -36.2%
COc1ccccc1CNC(=O)CSc1ccc(Br)cc1 | -4.1% | -0.9%
Cc1nc2scc(-c3ccccc3)c2c(=O)n1/N=C/c1ccco1 | -25.1% | x
O=C1/C(=C\c2cccnc2)N2CCC1CC2 | -14.6%[7.34 µM] | -6.9%[7.34 µM]
O=[N+]([O-])c1cc(-n2cnnn2)c(O)c([N+](=O)[O-])c1 | -8.5% | -3.7%
O=C(NCc1cccnc1)C1c2ccccc2C(=O)N1C1CCCC1 (stereo not given) | -1.7% | i
Cc1ncsc1C(=O)NCc1ccc(N2CCCC2=O)cc1 | -18.4% | i
CC(=O)OC[C@@H]1CN(Cc2ccccc2)C[C@H](n2cnc3c(N4CCN(c5ccccc5)CC4)ncnc32)O1 | 3.6% | 22.2%
Cc1ccc(Cl)cc1NC(=O)/C(C#N)=C\c1cn(Cc2ccc(F)cc2)c2ccccc12 | 6.8% | -9.1%
COc1ccccc1C(=O)NC(CCSC)C(=O)NCc1ccncc1 (stereo not given) | -5.5% | -19.4%
CCOC(=O)C1=C(C)N=C2SCCC(=O)N2C1c1cccs1 (stereo not given) | 1.9% | x
Cc1cccc(NC(=O)CSC2=NN3CCCC(=O)N=C3S2)c1C | -12.4% | i
O=C(/C=C/c1ccco1)Nc1cc(Cl)ccc1C(=O)O | -7.9% | -5.9%
CCN1C(=O)/C(=C/C=C2/SCCN2C)SC1=S | 7.6% | -5.1%
CCc1ccc(Nc2n[n+](-c3ccccc3)c(-c3cccc(C)c3)s2)cc1 | -25.4% | -9.6%
